# LANA-nucl inh: LANA-nucleosome interaction inhibition | 51,000 compounds, 0.3% hits | z-score (concentration not given with the values) | FITC-LANA1-23 / chicken nucleosome fluorescence polarization; hits give low values | AID 720717;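 active means both repeat wells score below -2 in polarization z-score versus plate sample wells, excluding overly bright wells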;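 further: 100 nL library stock added to about 30 µL; numbers are from one replicate; some results filed as inactive read as strong as hits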
#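 Test system: purified chicken nucleosomes with FITC-labelled LANA N-terminal peptide (1-23); Input: 240 nM purified chicken nucleosomes (480 nM peptide binding sites), final; Medium: TEN-BT buffer, pH 7.5; Timing: 10–45 min, room temperature; Technique: fluorescence polarization, 480 nm excitation, 535 nm parallel and perpendicular emission; Replication: duplicates.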
# Ab BasE inh: blocks the Acinetobacter baumannii siderophore enzyme BasE | AID 485350 | inhibition, % (test concentration not listed) | 84,000 compounds, 0.1% hits | purified BasE, fluorescence polarization binding displacement;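 active means both replicates above 25% with normal brightness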;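 further: 0% = negative plate control signal and 100% = positive plate control signal; stock transfer was 100 nL into about 30 µL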
# Numbers without * were called inactive; · = no result given; & = joins results of further samples.
# Sample of the layout (2 entries):
smiles | LANA-nucl inh | Ab BasE inh
O=C(COC(=O)Cc1coc2ccc3ccccc3c12)Nc1nnc(-c2ccccc2)o1 | · | 3.0
CCOc1ccc(C(=O)N2C(C)CCCC2C)cc1OCC (stereo not given) | -0.74 | -0.9

# The list itself, from the start:
smiles | LANA-nucl inh | Ab BasE inh
O=C(COC(=O)Cc1coc2ccc3ccccc3c12)Nc1nnc(-c2ccccc2)o1 | · | 3.0
CCOc1ccc(C(=O)N2C(C)CCCC2C)cc1OCC (stereo not given) | -0.74 | -0.9
O=C1c2ccc(-c3nc4ccccc4c(=O)o3)cc2C(=O)N1Cc1ccc(Cl)cc1 | · | 1.3
C=CCn1c(CC(=O)Nc2ccccc2Cl)nnc1SCC(=O)Nc1nccs1 | 0.32 | 2.2
CC(C)(C)NC(=O)CCCN1C(=O)c2ccccc2C1=O | -0.47 | -0.1
O=C(OCC(=O)N1CCCCC1)c1ccccc1OCCOc1ccccc1 | · | -3.0
COC(=O)c1ccc(CNC(=O)C(NC(C)=O)C(C)C)cc1 (stereo not given) | · | 1.1
COc1cccc(NC(=O)CSc2ncccn2)c1 | -0.7 | 1.3
COc1ccc(NS(=O)(=O)c2cccc3cccnc23)c(OC)c1 | 0.19 | 1.4
CC(C)C(=O)NCCc1nc(-c2ccccc2Cl)no1 | -1.3 | -0.4
O=C(O/N=C/c1ccc(F)c(Cl)c1)C1CC1 | 0.16 | 0.8
Cc1ccc(NNC(=S)NC2CCCCC2)cc1 | · | 0.2
CCCc1nn2c(=O)cc(COc3ccc(C)cc3)nc2s1 | 0.61 | -0.7
COc1ccc(N2CCN(CCNC(=O)c3nnc(Cc4c(F)cccc4Cl)o3)CC2)cc1 | -0.45 | -0.5
CCN(CC)S(=O)(=O)c1ccc2[nH]c(=O)cc(C(=O)Nc3ccccc3N3CCN(C)CC3)c2c1 | · | 1.9
COc1cccc(NC(=O)CC2CCCCC2)c1 | -0.64 | 0.9
Cc1ccc(Nc2nc(Nc3ccc(C)cc3)nc(N3CCCCC3)n2)cc1 | · | 0.6
Cc1nc(Cl)c(Cc2ccccc2)c(N2CCCC2)n1 | -0.024 | -1.1
CC(C)CC(N)c1ccccc1 (stereo not given) | · | 1.9
O=C(Nc1ccc(Br)cc1F)C1CCCN(S(=O)(=O)N2CCC3(CC2)OCCO3)C1 (stereo not given) | -0.69 | 0.5
CN(C)c1ccc(C(=S)N2CCN(c3cccc(Cl)c3)CC2)cc1 | 0.45 | 2.1
C=CCN(C#N)c1nc(N(C)C)nc(N(C)C)n1 | · | -0.6
Cc1cc(-n2c(C)cc(CNC(C)C(O)c3ccc(O)cc3)c2C)no1 (stereo not given) | · | -2.9
O=C(Nc1nc(-c2cccs2)cs1)C1CC(=O)N(C2CCCC2)C1 (stereo not given) | · | -0.8
O=C1c2ccccc2NC2(CCCCC2)N1N=C1CCCCC1 | -0.67 | 4.5
O=C(N/N=C/c1cccnc1)C1=NNC(=O)C1CCO (stereo not given) | -0.098 | -0.4
Cc1ccc(Cl)cc1NC(=O)CSc1nc2c(oc3ccccc32)c(=O)n1C1CCCC1 | -1.7 | 0.6
CN(C)C(=O)CSc1cnc2ccccc2n1 | -1 | ·
O=C(O)c1cccc(OCc2cn3ccccc3n2)c1 | · | 2.1
CCOC(=O)N1CCN(c2c(-c3ccccc3)c3cc(Cl)ccc3[nH]c2=O)CC1 | -1.1 | 1.8
COc1ccc(OC(=O)C=C(C)C)cc1 | 0.2 | -2.2
Cc1nnc(SCC2=C(C(=O)O)N3C(=O)[C@@H](NC(=O)Cn4cnnn4)[C@H]3SC2)s1 | 1.2&0.095&-0.22 | -0.4&-1.1
O=C1C=CC(=O)N1c1ccc(N2CCOCC2)cc1 | 0.1 | 2.7
C/C(N)=C(/C#N)C(=O)CSc1ncccn1 | · | -0.5
Cc1ccc(S(=O)(=O)CCSc2nc(C)cc(C)c2C#N)cc1 | -0.17 | 1.4
COc1ccccc1N=C(N)Nc1cccc(C(F)(F)F)c1 | · | -0.2
CC1CCCCC1NC(=O)Cn1cnc2ccccc2c1=O (stereo not given) | · | -1.7
Oc1cc(O)cc(/C=C/c2ccc(O)c(O)c2)c1 | -0.39 | 86*
COc1ccc(NS(=O)(=O)c2cc3c(cc2C)NC(=O)CO3)cc1 | -0.91 | 0.2
CC(C)c1ccc(S(=O)(=O)N2CCN(C(=O)CN3C(=O)c4ccccc4C3=O)CC2)cc1 | · | -1.2
CC(=O)n1c2c(c3ccccc31)OC(N)=C(C#N)C2c1ccc(Cl)cc1Cl (stereo not given) | -0.15 | -1.9
Cc1ccccc1NC(=O)NC(N)=O | -0.058 | 3.1
CC(C#N)Sc1nc2ccc(Br)cc2c(=O)n1Cc1ccco1 (stereo not given) | · | 2.4
O=C(O)c1ccccc1CN1CCOCC1 | 0.69 | 3.7
Cc1ccc(SCC(=O)N/N=C/c2ccco2)cc1 | -0.82 | -2.2
CN(Cc1ccccc1)C(=O)C1CCN(S(C)(=O)=O)CC1 | 0.66 | 2.9
CCCCCn1c(=O)c2ccccc2n2c(Cn3nnc(-c4ccccc4)n3)nnc12 | · | 4.0
Cc1c2cnn(C)c(=O)c2c(C)n1-c1ccccc1 | -0.075 | -0.7
Cc1ccc(-c2nnc3n2N=C(C(C)(C)C)CS3)cc1 | · | -1.0
CCOC(=O)c1sc(NC(=O)C2CC2)cc1C | 0.73 | 0.2
COc1ccc(CCNC(=O)CCc2nnc3n(CCC(C)C)c(=O)c4ccccc4n23)cc1OC | 1.1 | -3.4
Cc1ccc(S(=O)(=O)NCCC(=O)NC2=NCCS2)cc1C | · | 0.1
NNC(=O)CNC(=O)c1ccc(S(=O)(=O)N2CCOCC2)cc1 | 1.7 | -1.9
Cc1nc(C)c(C(=O)OC(C)C(=O)Nc2ccc(C(N)=O)cc2)s1 (stereo not given) | · | -1.3
CCOC1(c2ccccc2)OC(=O)c2ccccc21 (stereo not given) | -1.1 | 0.1
COC(=O)c1ccsc1NC(=O)CN1CCN(S(=O)(=O)c2ccc(Cl)cc2)CC1 | -0.47 | 2.1
CCCc1cc(-c2onc(C)c2-c2ccc(C(=O)OCC)o2)c(O)cc1OC | · | 2.6
CCC(C)(C)NC(=O)Cn1[nH]c(=O)c2ccccc2c1=O | · | 3.8
NCCC(=O)N1c2ccccc2Sc2ccc(Cl)cc21 | -0.072 | -3.6
CC(C)Sc1nnc(C2CC2)n1-c1ccccc1 | · | 2.4

# The list continues:
smiles | LANA-nucl inh | Ab BasE inh
O=C(CCN=C1NS(=O)(=O)c2ccccc21)N1CCN(c2ccc(C(F)(F)F)cn2)CC1 | · | 0.2
O=C(COC(=O)c1ccc(N2CCCC2=O)cc1)NCc1ccco1 | · | 2.6
Oc1ccc(C2C=CCC2)cc1 (stereo not given) | 0.46 | 15
CC1CC(=O)Nc2ccccc2N1C(=O)COC(=O)c1n[nH]c(=O)c2ccccc12 (stereo not given) | · | 3.2
CCCCN=c1sc(C(=O)OC)cc(=O)n1CCCC | -0.12 | 0.5
O=S(=O)(c1cccc(C(F)(F)F)c1)N1CN2CN(C1)CN(S(=O)(=O)c1cccc(C(F)(F)F)c1)C2 | -0.37 | 3.4
Cc1cc(Cl)n2ncnc2n1 | · | 1.2
Cn1c(=O)c2ccccc2[s+]1-c1cccc2cccc(C(=O)O)c12 (stereo not given) | · | 0.6
CC(CCC(=O)O)[C@H]1CCC2C3C(=O)C[C@@H]4CC(=O)CC[C@]4(C)C3CC(=O)[C@@]21C (stereo not given in full) | 0.51 | ·
O=C(Nc1nnc(N2CCCCCC2)s1)c1cc(-c2ccc(Br)cc2)on1 | -0.19 | -1.4
O=C(Cc1cn2ccsc2n1)N/N=C1\CCc2ccccc21 | · | 1.8
C[C@H]1C[C@H]2[C@@H]3CCC4=CC(=O)C=C[C@]4(C)[C@@]3(F)[C@@H](O)C[C@]2(C)[C@@]1(O)C(=O)CO | -0.13 | 0.6
O=C(NC(=O)N1CCSC1)c1c(F)cccc1Cl | · | 2.8
CCCn1c(N)c(C(=O)COC(=O)Cn2cc(C(F)(F)F)ccc2=O)c(=O)[nH]c1=O | · | 0.2
O=C(CC1Nc2ccccc2NC1=O)Nc1ccc(F)cc1 (stereo not given) | -1.1 | 1.1
COc1ccccc1N1C(=S)SC2CS(=O)(=O)CC21 (stereo not given) | · | -0.9
N#Cc1nc(COc2ccccc2)oc1NCc1cccnc1 | · | 0.4
CN1C(=O)CC(C(=O)O)SC1=Nc1cccc(F)c1 (stereo not given) | -0.41 | 1.4
O=C(Nc1nc(CSc2nc3ccccc3s2)cs1)C1CC1 | · | 1.8
CC1(c2ccccc2)CC(C)(C)N(C(=O)C(F)(F)F)c2ccccc21 (stereo not given) | · | 0.2
COCCCn1c(=N)c(C(=O)N2CCCCC2)cc2c(=O)n3cccc(C)c3nc21 | -0.13 | 1.7
C[C@]12C=C(C#N)C[C@@]1(C)C=C(C#N)C2 | -0.35 | 1.4
O=C(NC1CCCCC1)NC1CCN(Cc2nnnn2Cc2ccc3c(c2)OCO3)CC1 | -0.46 | 1.4
CCC1CCCCN1CC(=O)c1ccco1 (stereo not given) | · | 1.7
O=C(CC(CC(=O)c1ccc(Br)cc1)c1cccnc1)c1ccc(Br)cc1 | · | -2.8
O=C(N1CCCCC1)N1c2ccccc2Sc2ccccc21 | · | -4.8
COc1ccccc1-c1cc(-c2ccc(O)cc2)nc(N)c1C#N | 0.14 | -1.8
C[C@@H]1CC2C3C[C@H](F)C4=CC(=O)C=C[C@]4(C)[C@@]3(F)[C@@H](O)C[C@]2(C)[C@@]1(O)C(=O)CO (stereo not given in full) | 0.12 | ·
O=C(COc1ccc2ccccc2c1)Oc1ccc(C(=O)c2ccccc2)cc1 | · | 4.0
O=C(O)Cc1ccc(S(=O)(=O)N2CCOCC2)s1 | · | 2.0

# Some values from the list:
# C[C@]12C=C(C#N)C[C@@]1(C)C=C(C#N)C2 – Ab BasE inh = 1.4
# CN(Cc1ccccc1)C(=O)C1CCN(S(C)(=O)=O)CC1 – Ab BasE inh = 2.9
# COc1ccccc1-c1cc(-c2ccc(O)cc2)nc(N)c1C#N – Ab BasE inh = -1.8
# CC(C)Sc1nnc(C2CC2)n1-c1ccccc1 – Ab BasE inh = 2.4

# Next section.
smiles | LANA-nucl inh | Ab BasE inh
CCOC(=O)c1cnn(-c2nc3ccccc3s2)c1/N=C/N(C)C | · | -1.4
CC(Cc1cccs1)NC(=O)NC1CCCCC1 (stereo not given) | · | -1.7
Cc1cc(C(=O)COc2ccc3ccc(=O)oc3c2)c(C)n1C | · | 0.6
CCOC(=O)c1c(C)oc2c1c1c(c3ccccc32)OCN(C2CC(C)(C)NC(C)(C)C2)C1 | -0.22 | 2.4
O=S(=O)(/C=C/c1ccccc1)N1CCN(Cc2cc3c(cc2O)CCC3)CC1 | · | 1.3
COc1ccc(OC)c(/C=c2\sc3nc4ccccc4n3c2=O)c1 | -1.6 | 2.3
N#Cc1c(Sc2nnnn2-c2ccccc2)nc(CCc2ccccc2)c2c1CCCC2 | · | 1.1
N#CC1=C(N)Oc2c(oc(CO)cc2=O)C12C(=O)NC1C=CC=CC12 (stereo not given) | 0.85 | -1.0
Cc1cc(Cl)ccc1OCc1nc(=S)[nH][nH]1 | · | 1.4
COc1ccccc1-c1nn(CCC(=O)NCCCN2CCCC2=O)c2nc(C)cc(C)c12 | 0.65 | -3.1
COc1ccc(C=C2C(=O)OC3(CCCCC3)OC2=O)cc1OC | · | -0.5
COC(=O)c1cc(-c2ccc(F)cc2)nc2onc(C)c12 | · | 0.8
COc1cc(NC(=O)CNc2cccc(C#N)c2)cc(OC)c1 | · | -1.4
Cc1c(NC(=O)Cn2c(-c3cscn3)nc3ccccc32)c(=O)n(-c2ccccc2)n1C | · | 3.0
Cc1ccc(C(=O)NC(C(=O)O)c2ccccc2)cc1 (stereo not given) | 0.56 | -2.4
CCOC(=O)CN1C(=O)S/C(=C/c2ccc(OCC(N)=O)c(OCC)c2)C1=O | -0.7 | 2.5
Cc1nc2nc(SCC(=O)O)nn2c(C)c1Cc1ccccc1Cl | 0.43 | 1.1
O=C1OC(c2ccc(F)cc2)=C/C1=C/c1ccc(O)cc1 | -0.007 | 4.7
CCN1C(=O)/C(=C\C=C\c2ccccc2Cl)SC1=S | · | -3.3
CCOc1ccc2nc(NCCNC(=O)NCc3ccccc3)c(C#N)cc2c1 | -1.2 | 0.8
CCN1CCN(Cc2ccc(NC(=O)C3CCCN(S(=O)(=O)N4CCC5(CC4)OCCO5)C3)cc2)CC1 (stereo not given) | -0.95 | 1.5
CCOC(=O)c1cc(-c2ccc(Cl)cc2)nc2c1c(=O)[nH]c(=O)n2CC(C)C | · | 1.2
CCc1ccc(C(=O)COC(=O)c2n[nH]c3ccccc23)cc1 | · | 1.3
O=C(CSc1ncn[nH]1)n1c2ccccc2c2ccccc21 | 0.3 | 0.3
CCOc1ccc(C(=O)C(CC(CN2CCOCC2)C(=O)c2ccc(OCC)cc2)CN2CCOCC2)cc1 (stereo not given) | -0.17 | -0.8
CCN(CC)C(=O)[n+]1ccc(OC)cc1 | · | 2.1
COc1ccc(OC)c(C2/C(=C(/O)c3ccc(C)cc3)C(=O)C(=O)N2c2cccnc2)c1 (stereo not given) | -0.68 | 1.7

# In another format: entries from further up
# Results follow in this order: LANA-nucl inh	Ab BasE inh
- CCOC(=O)c1cc(-c2ccc(Cl)cc2)nc2c1c(=O)[nH]c(=O)n2CC(C)C
    ·	1.2
- CCc1ccc(C(=O)COC(=O)c2n[nH]c3ccccc23)cc1
    ·	1.3
- O=C(CSc1ncn[nH]1)n1c2ccccc2c2ccccc21
    0.3	0.3
- CCOc1ccc(C(=O)C(CC(CN2CCOCC2)C(=O)c2ccc(OCC)cc2)CN2CCOCC2)cc1 (stereo not given)
    -0.17	-0.8
- CCN(CC)C(=O)[n+]1ccc(OC)cc1
    ·	2.1
- COc1ccc(OC)c(C2/C(=C(/O)c3ccc(C)cc3)C(=O)C(=O)N2c2cccnc2)c1 (stereo not given)
    -0.68	1.7

# The list is partial. The share of hits here may be higher or lower than overall.
